Bioassay records (PubChem)
BJeLR lethal: kills HRASV12-expressing BJeLR cells; inhibition, % (concentration not given with the values); BJeLR (HRASV12) viability, CellTiter-Glo ATP luminescence, 48 h; reference of the scale not given here; actives 0.17% (n = 300,000); AID 1554;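 active = replicate mean above 50%; inconclusive = above 50% but judged a plate artefact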;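 also: 50 nL library stock added to about 25 µL; numbers are from one replicate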
PrP UTR inh: inhibition of PrP 5' UTR reporter expression; cell-based PrP 5' UTR mRNA reporter, plate reader; actives 0.35% (n = 340,000); inhibition, % (concentration not given with the values);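 active = every replicate at 50% or more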;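 also: 0 = median of the neutral control wells; tested in H4 reporter cells; numbers are from one replicate; inactives centre near -14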
Mtb hypoxia rep: inhibitors of hypoxia-regulated fluorescent reporter in Mycobacterium tuberculosis. M. tuberculosis hypoxia-regulated fluorescent reporter, fluorescence. fluorescence inhibition, % (test concentration not listed). actives 0.1% (n = 300,000). AID 1159583;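 active = 35 to 45% if threefold the growth effect, above 45% if 1.5-fold the growth effect; inactive = the rest, general growth blockers included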;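 also: wells of about 50 µL received 100 nL stock; 0% = vehicle wells and 100% = reference inhibitor wells; whole bacteria with a GFP reporter of the hypoxia response; strong numbers were not always called active; many hits fall short of the cut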
ugtP null kill: compounds lethal to S. aureus RN4220 ugtP deletion mutant. actives 0.54% (n = 330,000). OD600 growth, 16 h; some inactives read as strong as hits. AID 1259309. growth inhibition, % (test concentration not listed);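 active = z-score under -3 and OD600 up to 0.15 on both plates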;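 also: plate controls were untreated wells for no effect and antibiotic for full effect; wells of about 80 µL received 100 nL stock; the first replicate is given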
Sa RN4220 lethal: S. aureus RN4220 growth inhibition | inhibition, % (no concentration beside the values) | actives 0.33% (n = 330,000) | AID 1259311 | OD600, 16 h;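 active = z-score of -3 or lower and OD600 up to 0.18 on both plates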;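 also: plate controls were untreated cells for no effect and reference antibiotic for full effect; stock transfer was 100 nL into about 80 µL; one replicate is shown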
Bead autofluor: counter-screen for toxin protease inhibitors: compound fluorescence. compound autofluorescence counterscreen, microsphere flow cytometry; stronger effect = higher value. fluorescence intensity (test concentration not listed). actives 3.1% (n = 360,000);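 active = at least 3 SD above the mean of all compounds, about 16000 in these data; inconclusive = too few beads counted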;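 also: 100 nL of 1 mM stock went into each well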
Mtb hypoxia rep growth: second read-out of Mtb hypoxia rep, no call of its own (marks repeat the call); growth inhibition, %; measured here: M. tuberculosis growth (absorbance);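 0% = vehicle and 100% = reference antibiotic; read after six days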
An asterisk follows results filed as active; ? = inconclusive; / = not tested or not shown; & = joins results of further samples. Rows are unselected. About 4.1% of those tested had a hit in this group.

no.	molecule	BJeLR lethal	PrP UTR inh	Mtb hypoxia rep	Mtb hypoxia rep growth
1	CCOc1ccccc1CN1CCC(Oc2cccc(C(=O)NCCOC)c2)CC1	8	-51	8	-1
2	Cc1cnc(C(=O)N2CCN(S(=O)(=O)c3ccc4ccccc4c3)CC2)cn1	4	-19	5	12
3	Cc1ccc(C(=O)COC(=O)c2ccccc2N2C(=O)C3C4CCC(C4)C3C2=O)cc1C (configuration not stated)	6	-14	4	16
4	O=C1CN(C(=O)COC(=O)COc2ccc3c(c2)CCC3)c2ccccc2N1	1	0	/	/
5	COc1ccc(Br)c(C(=O)NC2CCCC2)c1	-3	-29	1	2
6	COc1ccc(OC)c(-c2csc(NC(=O)CSCC(=O)Nc3cc(C)on3)n2)c1	/	-28	1	10
7	O=C(CNC(=O)c1ccccc1F)OC(C(=O)Nc1cc(C(F)(F)F)ccc1Cl)c1ccccc1 (configuration not stated)	1	-14	11	11
8	COc1ccccc1NC1=NCC(=O)N1Cc1ccccc1	-5	-10	4	-2

no.	ugtP null kill	Sa RN4220 lethal	Bead autofluor
1	9	5.2	4275
2	1	5.3	20208*
3	7	4.2	10289
4	15	7.7	3571
5	22	12	4593
6	-1	0.8	?
7	-3	3.1	22099*
8	12	1.6	3321

Next entries
no.	molecule	BJeLR lethal	PrP UTR inh	Mtb hypoxia rep	Mtb hypoxia rep growth
9	COc1ccc(C(=O)NN=Cc2ccc(OC)c(CN3CCCc4ccccc43)c2)cc1	/	/	-5	-16
10	Cc1cc(NC(=O)c2cc3ncc(Br)cn3n2)no1	4	-13	/	/
11	CC(=O)Nc1ccc(NC(=O)/C=C/c2ccc3c(c2)OCO3)cc1	6	-26	11	-3
12	O=C(NNc1cccc(Cl)n1)Nc1cccc(Cl)c1	-12	-33	14	15
13	Cc1ccc(NC(=O)Nc2ccno2)cc1	-11	/	89*	6.4*
14	CC(=O)c1ccccc1C(=O)N1CCCC(N2CCN(Cc3ccc4c(c3)OCO4)CC2)C1 (configuration not stated)	-2	-5	5	-4
15	CC(=NNC(=S)Nc1cccc(C)c1)c1cccc([N+](=O)[O-])c1	/	/	-1	-8
16	COc1ccc(-c2cc(C(F)(F)F)n3ncc(C(=O)NCC4CCCO4)c3n2)cc1 (configuration not stated)	/	-3	/	/

no.	ugtP null kill	Sa RN4220 lethal	Bead autofluor
9	-10	0.7	/
10	-4	3.5	4302
11	0	-1.4	2624
12	2	3.5	8797
13	2	-2.2	6176
14	12	3.2	3968
15	3	3.2	/
16	-9	2.3	4021

New compounds follow
no.	molecule	BJeLR lethal	PrP UTR inh	Mtb hypoxia rep	Mtb hypoxia rep growth
17	COCCNc1nc(-c2ccc(OC)cc2)c(-c2ccc(OC)cc2)s1	3	-20	1	12
18	CCCC(c1nnnn1Cc1cccs1)N1CCN(c2ccc(OC)cc2)CC1 (configuration not stated)	-1	-9	/	/
19	CCOC(=O)Cc1csc(NC(=O)Nc2ccc(Cl)cc2)n1	3	-6	-6	6
20	COc1cc2cc(CN(Cc3nnnn3Cc3ccccc3)CC3CCCO3)c(=O)[nH]c2cc1OC (configuration not stated)	-5	-3	-2	8
21	CC1CCCCC1NC(=O)C1CCCN(S(=O)(=O)c2ccc(-n3cnnn3)cc2)C1 (configuration not stated)	-11	-1	-3	-1
22	CCc1c(C)nc(N2CCN(c3ccccc3)CC2)[nH]c1=O	-5	6	5	2
23	Cc1ccc(C)c(OCCC(=O)N2CCN(S(=O)(=O)c3ccc([N+](=O)[O-])cc3)CC2)c1	/	-18	4	7
24	Clc1ccc(OCc2nc(-c3ccc(Br)o3)no2)cc1	9	-31	6	4

no.	ugtP null kill	Sa RN4220 lethal	Bead autofluor
17	25	-0.7	4330
18	3	2.2	4723
19	-15	1.4	5522
20	-3	-17	4006
21	-6	-0.8	4300
22	8	0.0	2876
23	0	0.7	4028
24	9	5.8	4244

New compounds follow
no.	molecule	BJeLR lethal	PrP UTR inh	Mtb hypoxia rep	Mtb hypoxia rep growth
25	CC1(C)CC(=O)C/C(=N/NC(=O)CCCOc2ccc(Cl)cc2Cl)C1	8	-11	/	/
26	CC(C)CC(N(C)C)C1(c2ccc(Cl)cc2)CCC1 (configuration not stated)	/	-46&-4	/	/
27	Cc1c(CC(=O)Nc2ccc(Cl)cc2)sc2ccc(Cl)cc12	2	-12	5	-10
28	Cn1cc(C(=O)N/N=C/C(Br)=C\c2ccccc2)ccc1=O	9	-14	/	/
29	CCc1cccc2c(C(=O)COC(=O)c3nccnc3N)c[nH]c12	9	-28	6	-7
30	c1ccc(CN2CCC(Nc3nc(-c4ccccc4)nc4ccccc34)CC2)cc1	-1	1	/	/
31	Cc1ccc(S(=O)(=O)c2c(N)n(N=Cc3ccco3)c3nc4ccccc4nc23)cc1C	/	/	5	6
32	COc1cc(Br)cc(/C=N/c2ncn[nH]2)c1O	-7	3	/	/

no.	ugtP null kill	Sa RN4220 lethal	Bead autofluor
25	/	/	4139
26	7&2	2.0&4.7	6191&4681
27	-19	-13	3417
28	/	/	4006
29	-4	-2.4	?
30	6	-3.5	4309
31	-13	-4.3	/
32	/	/	7945

(more compounds)
no.	molecule	BJeLR lethal	PrP UTR inh	Mtb hypoxia rep	Mtb hypoxia rep growth
33	O=C(O)c1ccccc1Cc1nc2cc(Cl)ccc2c(=O)[nH]1	9	-18	16	10
34	CCOC(=O)C(=NNc1cc(C(F)(F)F)ccc1Cl)N(CC)CC	/	/	3	14
35	CC(C)c1cc(C(=O)N/N=C/C(Br)=C/c2ccccc2)n[nH]1	50	-29	/	/
36	COC(=O)C1=C(c2ccc(S(C)(=O)=O)cc2)CC2CCC1N2C(=O)NCc1ccco1 (configuration not stated)	/	/	5	3
37	Nc1nc2n(c1C(=O)c1ccccc1)CCC2	7	-3	10	4
38	O=C(COC(=O)c1cc2ccccc2oc1=O)Nc1cccc(Br)c1	3	-30	-3	-8
39	O=C(CNC(=O)c1ccccc1Br)N/N=C/c1ccco1	-3	-25	/	/
40	O=C(c1ccc(Oc2cc(Cl)cc(Cl)c2)o1)N1CCCCC1	-2	-25	22	19

no.	ugtP null kill	Sa RN4220 lethal	Bead autofluor
33	6	6.8	4349
34	11	3.8	/
35	/	/	4635
36	2	7.1	/
37	13	4.3	8079
38	5	6.1	/
39	/	/	2793
40	5	14	6009

(listing goes on)
no.	molecule	BJeLR lethal	PrP UTR inh	Mtb hypoxia rep	Mtb hypoxia rep growth
41	CC(C)Cn1nc(C(=O)Nc2cccc(C(=O)NC3CC3)c2)c2ccccc2c1=O	/	-12	8	0
42	O=C(COC(=O)c1ccccn1)NCc1ccccc1	6	-34	3	5
43	CCNC(=O)NC(=O)CSc1ccc(S(=O)(=O)N(C)C2CCCCC2)cn1	/	-6	-5	-1
44	Cc1[nH]c2ccccc2c1C=NNC(=O)CNC(=O)Cc1ccccc1	/	/	9	8
45	Cc1nc(-c2ccccc2)sc1C1(C)CC(c2cccc([N+](=O)[O-])c2)=NO1 (configuration not stated)	-6	-25	15	11
46	CCCOc1ccc(C2CC(=O)NC2=O)cc1 (configuration not stated)	5	-24	13	4
47	COc1ccccc1/C=C/C(=O)OCC(=O)N1CCN(S(=O)(=O)c2ccc(C)cc2C)CC1	/	-24	5	3
48	Cc1c(NC(=O)c2ccccc2F)c(=O)n(-c2ccccc2)n1C	0	-6	3	1

no.	ugtP null kill	Sa RN4220 lethal	Bead autofluor
41	5	5.3	/
42	-3	1.0	10533
43	0	1.3	8857
44	2	-0.4	/
45	2	7.4	3875
46	0	1.7	4642
47	6	6.5	?
48	3	2.0	16314*

Whole records from above. Values in the order: BJeLR lethal, PrP UTR inh, Mtb hypoxia rep, Mtb hypoxia rep growth, ugtP null kill, Sa RN4220 lethal, Bead autofluor
`Cc1[nH]c2ccccc2c1C=NNC(=O)CNC(=O)Cc1ccccc1` reads /, /, 9, 8, 2, -0.4, /
`Cc1nc(-c2ccccc2)sc1C1(C)CC(c2cccc([N+](=O)[O-])c2)=NO1` (configuration not stated) reads -6, -25, 15, 11, 2, 7.4, 3875

Carrying on:
no.	molecule	BJeLR lethal	PrP UTR inh	Mtb hypoxia rep	Mtb hypoxia rep growth
49	Cc1csc(NC(=O)CCSCCc2ccccn2)n1	2	-10	2	-1
50	COc1ccc(CN2CCCC(C(=O)Nc3cccc(-n4cnnn4)c3)C2)c(C)c1C (configuration not stated)	-13	-21	5	1
51	O=S(=O)(Nc1nc(-c2ccccc2)cs1)c1cc(Cl)ccc1Cl	1	-3	4	-3
52	NC(=O)C1CCCCNc2c(F)cc([N+](=O)[O-])cc2C(=O)NC(CCCN=C(N)N)C(=O)NCC(=O)N1 (configuration not stated)	/	/	13	17
53	C1=C(CCNC2=NCCCCC2)CCCC1	8	-18	/	/
54	CCN(CC)C(=O)c1cn(C)c2ccc(S(=O)(=O)N(CC)CC)cc2c1=O	1	-15	17	2
55	O=S(=O)(c1ccc(S(=O)(=O)N2CCCC3(CCCCC3)C2)cc1)N1CCCCC1	-21	-8	9	3
56	O=[N+]([O-])c1cccc(S(=O)(=O)NCCOc2cccc3cccnc23)c1	-6	-8	3	8

no.	ugtP null kill	Sa RN4220 lethal	Bead autofluor
49	0	3.6	5849
50	6	-1.5	5436
51	39	-6.7	3484
52	-17	0.6	/
53	13	6.6	2551
54	4	3.9	9209
55	-6	4.4	6921
56	-1	4.1	2739

An excerpt from above, limited to Mtb hypoxia rep:
cpd	SMILES	Mtb hypoxia rep
54	CCN(CC)C(=O)c1cn(C)c2ccc(S(=O)(=O)N(CC)CC)cc2c1=O	17
55	O=S(=O)(c1ccc(S(=O)(=O)N2CCCC3(CCCCC3)C2)cc1)N1CCCCC1	9
56	O=[N+]([O-])c1cccc(S(=O)(=O)NCCOc2cccc3cccnc23)c1	3

Looked up one by one from above (5):
no.	molecule	BJeLR lethal	PrP UTR inh	Mtb hypoxia rep	Mtb hypoxia rep growth
53	C1=C(CCNC2=NCCCCC2)CCCC1	8	-18	/	/
56	O=[N+]([O-])c1cccc(S(=O)(=O)NCCOc2cccc3cccnc23)c1	-6	-8	3	8
52	NC(=O)C1CCCCNc2c(F)cc([N+](=O)[O-])cc2C(=O)NC(CCCN=C(N)N)C(=O)NCC(=O)N1 (configuration not stated)	/	/	13	17
55	O=S(=O)(c1ccc(S(=O)(=O)N2CCCC3(CCCCC3)C2)cc1)N1CCCCC1	-21	-8	9	3
54	CCN(CC)C(=O)c1cn(C)c2ccc(S(=O)(=O)N(CC)CC)cc2c1=O	1	-15	17	2

no.	ugtP null kill	Sa RN4220 lethal	Bead autofluor
53	13	6.6	2551
56	-1	4.1	2739
52	-17	0.6	/
55	-6	4.4	6921
54	4	3.9	9209

Carrying on.
no.	molecule	BJeLR lethal	PrP UTR inh	Mtb hypoxia rep	Mtb hypoxia rep growth
57	COc1ccc2[nH]c(C(=O)O)c(NS(=O)(=O)c3ccc(C)c(C)c3)c2c1	2	-8	2	2
58	COc1ccc(-c2cc(=O)[nH]c3ccccc23)cc1	/	-1	-5	0
59	Cc1cccc(N2CCN(CC(O)COc3ccccc3Cl)CC2)c1 (configuration not stated)	-3	-23	/	/
60	O=C(CCc1nnc2ccc(NCCCN3CCCC3=O)nn12)NCc1ccccc1Cl	-5	-20	4	11
61	CCOC(=O)c1c(C)oc(NC(=O)CCl)c1C(=O)OCC	5	-27	-5	8
62	O=C(Cn1nc(Cl)nc1Cl)c1cc2ccccc2oc1=O	-10	-17	-1	5
63	O=C(c1cnn2cccnc12)N1CCN(c2ccccc2)CC1	3	-8	10	6
64	CC(/C=N/NC(=O)c1c(Br)cnn1C)=C\c1ccccc1	3	-13	/	/

no.	ugtP null kill	Sa RN4220 lethal	Bead autofluor
57	12	5.1	6005
58	-6	1.3	3887
59	/	/	2910
60	6	3.1	5940
61	-12	-0.5	4511
62	-2	3.6	16246*
63	7	2.1	10451
64	/	/	1953

Other entries
no.	molecule	BJeLR lethal	PrP UTR inh	Mtb hypoxia rep	Mtb hypoxia rep growth
65	CC(C)(C)c1ccc(C(=O)N2CCCC2c2cccs2)cc1 (configuration not stated)	-14	1	-6	4
66	CC1C(=O)N2CCCc3cc(NC(=O)c4ccccc4Br)cc1c32 (configuration not stated)	9	-18	3	-1
67	CCC(CC(C)(C)O)C(=O)NNC(=S)Nc1ccccc1 (configuration not stated)	2	-32	10	-2
68	Cc1ccc2nc(C)c(C(=O)NN=Cc3ccc(C(=O)O)cc3)cc2c1	/	/	11	6

no.	ugtP null kill	Sa RN4220 lethal	Bead autofluor
65	4	2.4	5984
66	4	4.4	5433
67	-3	0.7	2102
68	2	3.3	/
